GLA inh pH 4.5: alpha-galactosidase A (human) inhibition, pH 4.5; AID 1467; purified enzyme, 4-MU-alpha-Gal fluorescence, pH 4.5; P06280; activity change, negative = inhibition, % at 105 µM; 230,000 tested, under 10 active; inconclusive = small, poorly fitted or top-dose-only inhibition, or a rising curve; inactive = flat fitted curve, though single readings scatter; no compound was filed as active;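 also: 0% = full activity with enzyme and -100% = basal without enzyme; dose as in the result columns while the protocol names 77 µM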
Target sequence (P06280 whole entry, looked up): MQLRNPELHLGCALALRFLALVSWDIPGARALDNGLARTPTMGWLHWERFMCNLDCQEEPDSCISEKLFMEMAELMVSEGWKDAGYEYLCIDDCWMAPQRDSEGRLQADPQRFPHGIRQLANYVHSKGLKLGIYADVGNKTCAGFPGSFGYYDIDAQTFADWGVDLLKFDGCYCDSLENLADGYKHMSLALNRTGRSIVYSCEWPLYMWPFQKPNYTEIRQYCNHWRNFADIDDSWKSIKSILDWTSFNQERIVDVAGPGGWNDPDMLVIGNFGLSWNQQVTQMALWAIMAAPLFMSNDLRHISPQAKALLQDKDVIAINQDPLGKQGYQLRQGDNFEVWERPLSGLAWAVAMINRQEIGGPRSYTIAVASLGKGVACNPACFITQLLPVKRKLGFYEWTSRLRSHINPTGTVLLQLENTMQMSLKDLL
miR-21 reporter: raises the signal of a miR-21 reporter | HeLa miR-21 FLuc reporter, luciferase, 48 h | Potency, µM (top dose mostly 38.3 µM), for inactives: at the highest dose reporter change, positive = more light | 340,000 tested, under 10 active; active = well fitted rising curve with a large enough effect; inconclusive = small, poorly fitted or top-dose-only effect; inactive = no such curve, though single readings can be large or run the other way;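 also: % of control where 0% means no effect; miR-21 action dims this reporter so a rising signal means less miR-21 action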
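HeLa cells stably expressing CMV-driven firefly luciferase with a downstream miR-21 binding sequence, endogenously expressing miR-21, were treated with titrations (up to about 40uM final) for 48 hours at 37 degree Celsius. Luciferase luminescence was read after lysis.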
Rango release inh: prevents RanGTP from dissociating the Rango-importin beta complex; O95149+P62826; Biochemical FRET Rango-importin beta, RanGTP-induced dissociation; Potency, µM (titrated, usually from 46.1 µM), for inactives: top-dose activity change, negative = inhibition; actives 0.071% (n = 340,000); AID 540253; active means falling FRET ratio curve, often poorly fitted, with flat reads before Ran was added; inconclusive means other falling curves, or compound fluorescence or quenching; inactive means flat or rising ratio curve;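 also: potency is read from the fitted curve at half-maximal effect; % of control where 0% means no effect; nearly all actives have a fitted effect of over 45% in size; -100% = wells without RanGTP and RCC1; the record marks most hits as doubtful in a second field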
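Compounds preincubate 5 min with complex of recombinant Rango and importin beta in PBS with 1 mM DTT. Ran (0.6 uM) loaded with 2 mM GTP plus 0.2 uM RCC1 starts dissociation; FRET is recorded 45 min later.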
Rango complex inh: inhibitors of Rango-importin beta complex formation; Rango CFP/YFP FRET sensor + importin beta, 45 min; Potency, µM (series often up to 92.2 µM), for inactives: at the highest dose inhibition of complex formation; actives 0.031% (n = 340,000); active = rising FRET ratio curve, often small or poorly fitted; inconclusive = mostly compound fluorescence or quenching in the first reads; inactive = flat curves in all reads;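 also: potency is read from the fitted curve at half-maximal effect; 0% = DMSO wells and 100% = buffer wells lacking importin beta; nearly all actives have a fitted effect of over 15% in size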
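FRET biosensor (snurportin 1 IBB flanked by EYFP and cerulean), 50 nM, with compound 5 min, then 0.125 microM importin beta in PBS, 1 mM DTT, 0.02% Tween-20, 0.1% BSA. CFP/YFP ratio read after 45 min at room temperature; pre-read flags interference.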
* marks the source's active call; other numbers are inactive results; ? = inconclusive; / = no result given. The list is partial; the hit share may differ from the screen's.

miR-21 reporter,mol,Rango complex inh,Rango release inh,GLA inh pH 4.5
0%,O=C1CCc2cc(S(=O)(=O)NC(Cc3ccccc3)C(=O)NCC3CCCO3)ccc2N1 (stereo unspecified),0.6%,-10%,1
8%,CCOc1ccc(CCNC(=O)Nc2cccc(OC)c2)cc1OCC,0.2%,1%,/
0%,Cn1nc(C(C)(C)C)cc1C(=O)NN1CCOCC1,-4.5%,-6%,/
-9%,CC1(C)Cc2c(cnn2-c2ccccc2)C(=O)/C1=N\NC(=O)c1ccccc1N,-1.7%,-4%,3
-3%,CC(NC(=O)c1ccncc1)c1ccc(Cl)cc1Cl (stereo unspecified),4.2%,10%,/
?,O=C(C1CCN(S(=O)(=O)c2cccc3cccnc23)CC1)N1CCN(c2ccc(Cl)cc2)CC1,2.6%,-7%,-7
16%,CC1CC(C)CN(S(=O)(=O)c2ccc3c(c2)oc(=O)n3CC(=O)NCc2cccnc2)C1 (stereo unspecified),0.2%,-5%,-6
-2%,Cc1ccc(C)c(CNS(=O)(=O)c2c(C(=O)N3CCCC3)c(C)n(C)c2C)c1,0.8%,-3%,/
/,O=C(CN1CCCC1c1cccs1)N1CCN(S(=O)(=O)c2cccc(F)c2)CC1 (stereo unspecified),0.2%,-10%,/
-7%,CCN1CCN(C(c2cccs2)C(C)NC(=O)C(C)C)CC1 (stereo unspecified),-0.2%,-14%,-3
-20%,Cc1ccccc1C(=O)Nc1cccc(N)c1,-1.3%,-6%,-6
-1%,CC(C)CNC(=O)COC(=O)c1ccc(Cl)c(S(=O)(=O)N2CCc3ccccc32)c1,-0.7%,0%,-8
1%,CCN1C(=O)C2(SC(NC(C)=O)=NN2C(C)=O)c2cc(C)cc(C)c21 (stereo unspecified),4.3%,3%,4
2%,Cc1nn2c([nH]c(=O)c3ccccc32)c1C=O,-4.6%,8%,-9
-1%,O=C(N/C(=C/c1cccs1)C(=O)N1CCCCCC1)c1ccccc1,3.6%,2%,-4
-1%,CCC(=O)Nc1ccc(C(=O)NNC(=O)Cc2ccccc2)cc1,1.7%,2%,0
0%,O=C(NCc1cc(C(F)(F)F)cc(C(F)(F)F)c1)C12CN(Cc3ccccc3)CC1C(c1cccc([N+](=O)[O-])c1)=NO2 (stereo unspecified),-3.3%,-24%,-27
-15%,O=S(=O)(NCCCc1ccccc1)c1cccc2nsnc12,?,-16%,0
0%,Cc1cccc(NCC(=O)N/N=C\c2ccc[nH]2)c1,-3.5%,-1%,2
6%,O=C(CSc1oc(-c2ccccc2)nc1S(=O)(=O)c1ccccc1)NCC1CCCO1 (stereo unspecified),0.2%,-6%,/
/,COc1ccc(N(C)S(=O)(=O)c2cccc(C(=O)Nc3nnc(C)s3)c2)cc1,-5.1%,32%,/
-8%,CN(C(=O)COC(=O)c1cc2c(s1)CCCCC2)C1CCS(=O)(=O)C1 (stereo unspecified),3.0%,8%,/
-38%,CCNC(=S)N/N=C/c1cc(C)n(-c2ccc(Cl)cc2)c1C,-1.8%,10%,-8
-2%,CC(=O)c1ccc(N(C(=O)CNC(=O)c2ccco2)C(C(=O)NC2CCCC2)c2cccnc2)cc1 (stereo unspecified),2.7%,-13%,/
0%,Cc1cc(C(=O)N2CCCc3ccccc32)no1,4.3%,-1%,3
-15%,Cc1cc(/C=N/n2cnnc2)c(C)n1-c1cccc(Cl)c1,2.4%,-8%,2
-1%,CC1(C)CC(=O)CC(=NCC(=O)O)C1,?,26µM*,-4
/,CC(C)(O)CN(C(=O)c1ccc([N+](=O)[O-])cc1)C1CCCC1,0.9%,-1%,/
10%,COc1ccc(CN2CCN(C(=O)CCC(=O)Nc3nnc(CC(C)C)s3)CC2)cc1F,-0.2%,?,/
-14%,CC(NC(=O)c1cccc(C(F)(F)F)c1)C1CCCO1 (stereo unspecified),0.8%,4%,-3

Three of the entries above in order of the GLA inh pH 4.5 value, lowest first.
SMILES | miR-21 reporter | Rango complex inh | Rango release inh | GLA inh pH 4.5
CC1(C)CC(=O)CC(=NCC(=O)O)C1 | -1% | ? | 26µM* | -4
O=S(=O)(NCCCc1ccccc1)c1cccc2nsnc12 | -15% | ? | -16% | 0
CC1(C)Cc2c(cnn2-c2ccccc2)C(=O)/C1=N\NC(=O)c1ccccc1N | -9% | -1.7% | -4% | 3

Record cards, from the list above.
CC1(C)CC(=O)CC(=NCC(=O)O)C1 is entered as miR-21 reporter = -1%; Rango complex inh = ?; Rango release inh = 26µM*; GLA inh pH 4.5 = -4
CCNC(=S)N/N=C/c1cc(C)n(-c2ccc(Cl)cc2)c1C is entered as miR-21 reporter = -38%; Rango complex inh = -1.8%; Rango release inh = 10%; GLA inh pH 4.5 = -8

Additional records.
miR-21 reporter,mol,Rango complex inh,Rango release inh,GLA inh pH 4.5
/,C=CCOc1ccc(/C=C/C(=O)OCC(=O)NCc2ccco2)cc1,-0.7%,19%,/
-2%,CN1CCCN(C(=O)c2ccc(Br)cc2)CC1,-2.9%,5%,/
5%,NC(C(=O)O)C1CC(Cl)=NO1 (stereo unspecified),/,/,2
-1%,CCc1ccccc1NC(=S)N(CCCN1CCN(C)CC1)Cc1cccs1,0.8%,-20%,10
0%,COc1ccc(Cn2nnnc2C(c2ccc(N(C)C)cc2)N2CCC(C)CC2)cc1 (stereo unspecified),?,-8%,-8
-9%,CC(C)c1cc(=O)oc2c3c4c(cc12)CCCN4CCC3,?,?,?
3%,COc1ccccc1N1CCN(C(=O)CSc2ncccc2-c2nc3ccccc3[nH]2)CC1,0.9%,-3%,-29
/,CN(CC(=O)Nc1cccc(F)c1)C(=O)Cn1c(=O)oc2ccccc21,-0.1%,1%,/
-1%,Brc1ccccc1-c1cnco1,-2.5%,0%,1
-4%,O=C(Cc1ccc(Br)cc1)N1CCN(c2ccc(F)cc2)CC1,1.3%,10%,-3
-3%,O=C(COc1ccc([N+](=O)[O-])cc1)N1CCN(c2nnc(-c3ccccc3)c3ccccc23)CC1,-3.7%,19%,0
-4%,CC(C)c1onc(C(=O)N2CCCCC2C)c1[N+](=O)[O-] (stereo unspecified),?,0%,-7
-6%,CC(C)Oc1ccc(C2CC(=O)N(c3ccc(N(C)C)cc3)C2=O)cc1 (stereo unspecified),-0.1%,-9%,2
-11%,Cc1ccc(S(=O)(=O)NCCNc2ccccc2[N+](=O)[O-])cc1,-1.6%,-20%,0
/,C[C@@H]1CN[C@@H](CCO)/C1=C\c1ccccc1,2.0%,0%,/
-10%,O=C(O)c1[nH]c2ccccc2c1CC(=O)N1CCOCC1,?,1%,8
10%,O=C(COC(=O)c1ccc(OC(F)F)cc1)NCCCN1CCCC1=O,-0.2%,9%,0
-7%,Cc1ccn2c(C(=O)N/N=C/c3ccc(CNC(=O)C(=O)Nc4ccc(C)c(C)c4)o3)c(C)nc2c1,/,/,-10
-2%,O=C(CSc1ccc(-c2ccncc2)nn1)c1ccccc1,4.1%,-9%,-1
-5%,COc1ccc(C2(CNC(=O)c3ccc(OC)c([N+](=O)[O-])c3)CCCCC2)cc1OC,0.2%,0%,-23

4 of the compounds above, with each value named.
SMILES: O=C(COC(=O)c1ccc(OC(F)F)cc1)NCCCN1CCCC1=O
- miR-21 reporter = 10%
- Rango complex inh = -0.2%
- Rango release inh = 9%
- GLA inh pH 4.5 = 0

SMILES: O=C(COc1ccc([N+](=O)[O-])cc1)N1CCN(c2nnc(-c3ccccc3)c3ccccc23)CC1
- miR-21 reporter = -3%
- Rango complex inh = -3.7%
- Rango release inh = 19%
- GLA inh pH 4.5 = 0

SMILES: Cc1ccc(S(=O)(=O)NCCNc2ccccc2[N+](=O)[O-])cc1
- miR-21 reporter = -11%
- Rango complex inh = -1.6%
- Rango release inh = -20%
- GLA inh pH 4.5 = 0

SMILES: COc1ccc(C2(CNC(=O)c3ccc(OC)c([N+](=O)[O-])c3)CCCCC2)cc1OC
- miR-21 reporter = -5%
- Rango complex inh = 0.2%
- Rango release inh = 0%
- GLA inh pH 4.5 = -23

Continued.
miR-21 reporter,mol,Rango complex inh,Rango release inh,GLA inh pH 4.5
5%,CC(C)NC(=O)CN1CCN(c2ncccn2)CC1,-0.5%,-2%,3
0%,CCCCn1c(SCC(=O)Nc2cc(C)on2)nc2ccccc2c1=O,5.6%,18%,1
-1%,COc1ccc(NC(=O)COC(=O)/C=C/c2ccccc2[N+](=O)[O-])cc1,4.0%,-11%,-1
-6%,COc1ccc(N2C(=O)CC(NC34CC5CC(CC(C5)C3)C4)C2=O)c(OC)c1 (stereo unspecified),-2.2%,3%,-5
-14%,COc1ccc(NC(=O)C2CCN(S(=O)(=O)c3cccc4nonc34)CC2)cc1OC,4.8%,5%,/
-5%,O/N=C(\C[n+]1ccccc1)c1ccc(Br)cc1,4.1%,-10%,/
0%,OCCOCCn1c(-c2ccccc2)nc(=S)c2c1CCCC2,-0.4%,-9%,-7
0%,N#Cc1ccccc1OCC(=O)Nc1c(C(=O)C2CC2)oc2ccccc12,4.5%,8%,2
6%,CCC(C)C(NC(=O)OC(C)(C)C)C(=O)NC(C(=O)NC(C)C(N)=O)C(C)C (stereo unspecified),-1.2%,-3%,-4
-7%,COc1cc(CC(=O)OCC(=O)Nc2ccc3c(c2)OCCO3)cc(OC)c1OC,0.3%,-6%,0
/,COc1cc(OC)c2c(-c3cccc(-c4ccc(OC)c(OC)c4)c3)cc(=O)oc2c1,-4.6%,-6%,/
-2%,COCCCNCCCCOc1ccc(C)cc1[N+](=O)[O-],7.2%,2%,-1
-14%,C=CCn1c(-c2ccc(OC)c(OC)c2)cs/c1=N\c1ccccn1,-0.2%,-4%,-8
-1%,COc1cccc(CN2CCNC(=O)C2CC(=O)N(C)C2CCCCC2)c1 (stereo unspecified),?,-13%,/
?,Cc1cc(Cl)c(S(=O)(=O)N2CCN(c3ccc(F)cc3)CC2)cc1OCC(=O)NC1CCCCC1,0.1%,5%,-6
-3%,COc1ccc(S(=O)(=O)NCC(c2cccnc2)N2CCN(C)CC2)cc1OC (stereo unspecified),1.7%,1%,/
/,CCNC(=O)Cc1ccc(S(=O)(=O)N2CCOCC2)s1,?,16%,/
-32%,CCCCc1ccc(Nc2ncnc3nc[nH]c23)cc1,2.1%,18%,-10
/,CC(C)N1CCN(C(=O)c2ccc([N+](=O)[O-])cc2)CC1,3.5%,2%,/
-1%,CNC(=O)C1(C(F)(F)F)C/C(=C\CCO)CCCO1 (stereo unspecified),-1.6%,0%,/
-3%,COc1ccc(/C=C2\SC(=S)N(CCC(=O)Nc3cccc(O)c3)C2=O)cc1OC,?,-15%,/
-1%,COc1ccc(C(=O)NCC(=O)OCc2cccc(Br)c2)cc1,-2.2%,-7%,-9
/,CCN(C[C@H]1N[C@@](CC)(C(=O)OC)[C@H]2C(=O)N(Cc3ccccc3)C(=O)[C@@H]12)C(=O)c1ccc(C(C)(C)C)cc1,0.1%,9%,/
-2%,CC(=O)Nc1ccc(OC(=O)c2cc3cc(Br)cc(Br)c3oc2=O)cc1,/,/,2
/,O=C(NNC(=O)c1cc(Cl)ccc1O)c1ccc(NS(=O)(=O)c2cccs2)cc1,-2.1%,-7%,/
-46%,Cc1ccc2c(CN3CCCCC3)cc(=O)oc2c1,0.0%,-11%,/
-13%,O=C(/C=C/c1cccc([N+](=O)[O-])c1)NCCc1ccc(F)cc1,?,2%,1
/,CC(=O)Nc1ccc2c(O)cc(S(=O)(=O)O)cc2c1,-3.7%,-13%,/
-2%,CCOc1ccccc1-n1c(SCC(=O)N(C(C)C)C(C)C)nnc1-c1cccnc1,0.8%,3%,-2
-3%,COc1ccccc1C(NC(=O)CC(C)C)c1c(O)ccc2ccccc12 (stereo unspecified),1.4%,0%,/
0%,Cc1c(NC2=CC(=O)CCC2)c(=O)n(-c2ccccc2)n1C,-0.1%,7%,4
?,C=C1C(=O)C=C[C@]2(C)C[C@@H]3OC(=O)[C@](C)(O)[C@H]3C[C@@H]12,-0.5%,22%,0
4%,CCCn1c(C(C)NS(=O)(=O)c2ccccc2)n[nH]c1=S (stereo unspecified),4.0%,-15%,/
/,CCCn1c(SC(C)C(=O)NCC2CCCO2)nc2sc3c(c2c1=O)CCC3 (stereo unspecified),4.1%,4%,/

High-throughput results deposited in PubChem by National Center for Advancing Translational Sciences (NCATS).
